HSD17B inh – qHTS Assay for Inhibitors of HSD17B4, hydroxysteroid (17-beta) dehydrogenase 4 | 75,000 compounds, 7.6% hits | Potency, µM (titrated, usually from 57.1 µM), for inactives: at the highest dose activity change, negative = inhibition, usual class: inhibitors | recombinant HSD17B10, NADH fluorescence kinetic; many of its hits are not listed in these tables; active = well fitted inhibition curve with a large enough effect; inconclusive = small, poorly fitted or top-dose-only effect; inactive = no such curve, though single readings can be large or run the other way;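 note: the protocol describes HADH2 (HSD17B10) and not the HSD17B4 of the title; nearly all actives have a fitted effect of over 70% in size; most hits overshoot -100% by far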
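Activity followed as NADH fluorescence increase (ex 360, em 450 nm) every 30 seconds for 4 min, using final 90 uM beta-hydroxybutyryl CoA and 1 mM NAD+. Recombinant His-tagged enzyme, 20 nM, pH 9.0 Tris buffer, 15 min compound preincubation.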
* hit, by the source's call; u = inconclusive; & = joins results of further samples; [ ] = remark or other dose. % is set by controls: 0 for no effect and ±100 for the full control effect; potency is the fitted concentration of half-maximal effect. The list is partial. The share of hits here may be higher or lower than overall.

SMILES	HSD17B inh
O=C(C1CCCN(S(=O)(=O)c2cccnc2)C1)N1CCN(c2ccccn2)CC1 (stereo not drawn)	u
COc1ccc(Cn2nnnc2C(c2cccnc2)N2CCN(c3ccc(O)cc3)CC2)cc1 (stereo not drawn)	u
CSCCC(NC(=O)c1ccc(C)o1)C(=O)O (stereo not drawn)	-3%
Cc1[nH]c(=S)n(CC2CCCO2)c1C (stereo not drawn)	3%
O=S(=O)(c1ccc2c(c1)nc(COc1ccc(Cl)cc1)n2CC1CCCO1)N1CCOCC1 (stereo not drawn)	18%
CCC1=C2CC[C@H]3C(=O)N(CC(=O)OC)C(=O)[C@H]3[C@H]2[C@@]2(C)C(=O)N(CC3CC3)C(=O)N2C1=O	3%
CCc1ccccc1N(CC)C(=O)c1cn(C)c(=O)c2cc(OC)c(OC)cc12	-1%
CCCCNc1nc(C)nc2c1nc(-c1ccccc1)n2CCN1CCCC1	20µM*
CCCCOCCCNS(=O)(=O)c1ccccc1	6%
O=C(CN(c1ccc(F)cc1)S(=O)(=O)c1ccc2c(c1)OCCO2)NCc1ccccn1	u
Cc1c(C(=O)N2CC(C)OC(C)C2)sc2nc(-c3ccccc3)cn12 (stereo not drawn)	-10%
COc1ccc(-n2cnnc2)cc1	-4%
O=C(Cc1ccsc1)NCC(c1ccco1)N1CCCCC1 (stereo not drawn)	-3%
Cc1cc(C(=O)COc2ccc(-c3nnco3)cc2)c(C)n1Cc1ccccc1	1%
c1ccc2c(c1)nc(N1CCN(C3CCCCC3)CC1)c1nnnn12	31%[activator]
c1ccc(Cn2nnnc2C(c2cccs2)N2CCSCC2)cc1 (stereo not drawn)	-13%
O=C(Nc1nccs1)C1CCN(S(=O)(=O)c2ccc3c(c2)OCCCO3)CC1	0%
Cc1ccc(CCN2CC(C(=O)NCCCN3CCCCCC3)CC2=O)cc1 (stereo not drawn)	-6%
C=CCc1ccccc1OCC(CN1CCCCC1)OC(C)=O (stereo not drawn)	-9%
Nc1ncnc2c1ncn2[C@H]1O[C@@H](CO)[C@@H](O)[C@H]1N	2%[11.4 µM]
COC(=O)C1C(=O)C2=C(CC1C)NC(=O)CC2c1ccccc1 (stereo not drawn)	10%
Cc1nn(C)c(C)c1S(=O)(=O)N1CCC(C(=O)NC2CCCc3ccccc32)CC1 (stereo not drawn)	4%
CCOc1nc(-c2ccccc2)ccc1-c1noc(COC)n1	32µM*
Cc1onc(-c2c(F)cccc2Cl)c1C(=O)OCC(=O)Nc1c(C)n(C)n(-c2ccccc2)c1=O	-11%
Cc1ccc(S(=O)(=O)NC(C)C(=O)NC2CCCCCC2)cc1 (stereo not drawn)	-3%
Cn1c2c(c(=O)n(C)c1=O)CN(Cc1ccc(F)cc1)CN2	-5%
O=C1NC(c2cc3c(cc2Cl)OCO3)Oc2ccccc21 (stereo not drawn)	32µM*
CCn1c(=O)c2c(cnn2C)c2ccccc21	12%
O=C(O)C1CCN(c2nc(-c3ccccc3)nc3c2oc2ccccc23)CC1	-9%
COc1ccccc1NC(=O)CSc1nnnn1C	0%
C=CCn1c(=O)n(CCOC)c(=O)c2sc3ccccc3c21	32µM*
O=C(Nc1cccc(-c2nnc(-c3ccccc3)o2)c1)C1CCCO1 (stereo not drawn)	u
CCCCn1cnc2c(cnn2-c2ccc(Cl)cc2)c1=O	-9%
O=C(Cc1ccc2cccnc2c1)c1ccc(O)cc1O	-15%
O=C(NCc1ccc2c(c1)OCO2)C1CC(=O)N(c2ccc(O)cc2)C1 (stereo not drawn)	1%
CC(=O)Nc1c(C(=O)O)oc2ccccc12	9%
O=C(NCC12CC3CC(CC(C3)C1)C2)c1nn2c(c1Cl)NC(c1ccco1)CC2C(F)(F)F (stereo not drawn)	6%
COC(=O)C(NS(=O)(=O)c1ccc(NC(C)=O)cc1)C(C)C (stereo not drawn)	6%
CC(C(=O)NCCC1=CCCCC1)N1C(=O)c2ccccc2C1=O (stereo not drawn)	5%
CC(c1ccccc1)n1cc(C(=O)NCCCn2ccnc2)nn1 (stereo not drawn)	8%
COc1cccc(CNCc2ccccn2)c1OC	-4%
Cc1noc(C)c1CSc1nc2cc(S(=O)(=O)N3CCOCC3)ccc2o1	-11%
O=C(CS(=O)CC(=O)Nc1cccc2c1CCCC2)Nc1ccc(F)cc1 (stereo not drawn)	-3%
Cc1ccccc1NC(=O)CN(C)S(=O)(=O)c1cccc2cccnc12	0%
O=C(NCc1cccnc1)c1cccc(Cl)c1	-2%
CC(C)C(C(=O)NCc1ccco1)N(C(=O)CNS(=O)(=O)c1ccc(Cl)cc1)C1CCCC1 (stereo not drawn)	-4%
COc1ccccc1N1CCN(C(=O)C2CC=CCC2C(=O)O)CC1 (stereo not drawn)	3%
CCCCc1cc(=O)oc2cc(C)cc(OCc3nn[nH]n3)c12	32µM*
CC(C)C(=O)Nc1cc(=O)[nH]c2ncnn12	8%
COc1cccc(CNn2cnnc2)c1OCc1ccc(F)cc1	-8%

Following part:
SMILES	HSD17B inh
CCn1c2c(c3cc(Br)ccc31)CCC/C2=N\O	-13%
CSc1ncc(Cl)c(C(=O)Nc2nnc(SC)s2)n1	-5%
CCc1c2c(nc3cccc(C(C)C)c13)-c1cccc(=O)n1C2	10µM*
COc1cc(-c2[o+]c3cc(O)cc(O)c3cc2O)cc(O)c1O	-17%[11.4 µM]
CCC#CCOCC(=S)Nc1ccccc1	14%
O=C(O)CCCC(=O)Nc1ccc(C(=O)NCc2cccnc2)cc1	10%
CCN(CC)CCNC(=O)c1ccc(NC(C)=O)cc1	4%&-6%
Cc1cnc(CNc2ncnc3ccc(-c4ccoc4)cc23)cn1	u
CCCNC(C)(C)COC(=O)c1ccccc1	-4%[25.6 µM]
COC(=O)[C@@H]1CC[C@H](C)[C@@H](c2ccc(C)cc2)N1C(=O)c1ccc(/C=N\O[C@@H](C)CN2CCCc3nc(C)c(C)cc32)cc1	9%[11.4 µM]
Cc1ccc(P(=O)(OCCN2CCOCC2)C(C)(C)C)o1 (stereo not drawn)	8%
CCCC(Cl)CCCC(Cl)CCC(Cl)CCC(Cl)CCC(Cl)CCCC(Cl)CCC (stereo not drawn)	-1%
COc1ccc(C)cc1NC(=O)CN1CCN(S(=O)(=O)c2ccc(Br)cc2)CC1	-5%
O=C(CCc1nc(-c2ccccc2F)no1)NCCc1ccccc1Cl	-5%
O=C(Nc1ccc(Cl)cc1C(=O)Nc1ccccn1)c1ccco1	19%
c1csc(CNc2ncncc2-c2ccc3c(c2)OCO3)c1	u
Cc1c(-c2cccs2)[n+](=O)c2c(n1[O-])CCC2	6%
CCN(CC)CCCNc1oc(-c2ccc(OC)c(OC)c2)nc1C#N	32µM*
CCOc1ccc(NC(C)=O)cc1N	0%
O=C(NCc1ccccn1)c1cc2cc(Br)ccc2oc1=O	1%
CC1=C(C(=O)Nc2ccccc2)C(c2ccc(C)o2)n2c(s/c(=C\c3ccco3)c2=O)=N1 (stereo not drawn)	u
CCCCOC(=O)n1c(SCC(=O)N(CC)CC)nc2ccccc21	1%
CCC(=O)c1ccc(N2CCN(C(=O)COc3ccc(F)cc3)CC2)c(F)c1	u
Fc1cc2nccnc2cc1N1CCSCC1	u
CC1(C)CC(=O)c2cn3c(nc2C1)nc1ccccc13	2%

Among those listed so far, five have a thiophene ring, fused or not:
SMILES	HSD17B inh
O=C(Cc1ccsc1)NCC(c1ccco1)N1CCCCC1 (stereo not drawn)	-3%
c1ccc(Cn2nnnc2C(c2cccs2)N2CCSCC2)cc1 (stereo not drawn)	-13%
C=CCn1c(=O)n(CCOC)c(=O)c2sc3ccccc3c21	32µM*
c1csc(CNc2ncncc2-c2ccc3c(c2)OCO3)c1	u
Cc1c(-c2cccs2)[n+](=O)c2c(n1[O-])CCC2	6%

The listing continues:
SMILES	HSD17B inh
CNc1nnc(CSc2nc(C)cc(C)n2)s1	11%
O=C(c1ccccc1)N1CCN(CC#Cc2ccccc2)CC1	6%
CCOC(=O)CN1c2ccccc2NC(=O)CC1C (stereo not drawn)	8%
CCCN1CCN(CCCNC(=O)C2CCCN(c3nc4ccc(OCC)cc4s3)C2)CC1 (stereo not drawn)	14%
Cc1nn2c(C(F)(F)F)cc(-c3ccc(Cl)cc3)nc2c1C(=O)N1CCOCC1	-16%
CCN(CC)c1ccc(C=Nc2ccc(C#N)cc2)c(O)c1	-9%
O=C1OCC2=C1C(c1ccc3c(c1)OCO3)Sc1ccccc1N2 (stereo not drawn)	-17%
CCOC(=O)c1cc(NC(=O)c2ccoc2C)cc(C(=O)OCC)c1	3%
Nc1nc(SCC(=O)O)[nH]c(=O)c1N	-17%[11.4 µM]
CC(C)c1ccc2oc(-c3ccc(N)cc3)nc2c1	16µM*
Cc1cccn2c(=O)c3cc(C(=O)NCCN4CCOCC4)n(Cc4ccccc4)c3nc12	8%
O=C(C1CCN(c2nnc(N3CCCC3=O)s2)CC1)N1CCN(Cc2ccc3c(c2)OCO3)CC1	5%
CCOC(=O)CSc1nnc(CNC(=O)c2ccco2)n1C	-1%
CCOC(C)(C)C	9%
COc1ccc(C2CC(=O)Nc3ccccc3S2(=O)=O)cc1OC (stereo not drawn)	-10%
O=C1CC(N2CCN(S(=O)(=O)c3cccc(C(F)(F)F)c3)CC2)C(=O)N1Cc1ccccc1 (stereo not drawn)	-17%
Cc1cc(C)c(C#N)c(SCC(=O)N(C)C2CCCCC2)n1	-11%
CCOCCCn1cnc2c(c1=O)c1nc3ccccc3nc1n2-c1ccc(C)cc1	-7%
CCc1nc(C)ccc1OCC(=O)O	-1%
COc1cc(-c2nc3oc4ccccc4c(=O)c3c(=O)n2Cc2ccco2)cc(OC)c1OC	17%
COc1ccc(NC(=O)CSc2nnc(-c3ccccn3)n2N)cc1Cl	-1%
c1csc(-c2nnc(-c3ccc(N4CCOCC4)cc3)o2)c1	32µM*
O=C(CN1CCC(n2nnc3cc(F)ccc32)CC1)NCc1ccco1	-10%
CCc1c(C)nc2ncnn2c1N1CCC(C(=O)NCc2ccc3c(c2)OCO3)CC1	-6%
Cn1c(=O)c2c(nc(CN3CCOCC3)n2CCCO)n(C)c1=O	3%
OCCN1CCOCCN(CCO)CCOCC1	1%
Cn1c(=O)n(CC(=O)NC2CCCCC2)c(=O)c2ccccc21	-6%
CCCC[C@@H]1C[C@H]1C(NC(=O)c1ccco1)c1ccccc1C(F)(F)F (stereo partly drawn)	-18%
Cc1ccc2c(c1)NC(=O)C(CC(=O)NCCCN1CCCCC1C)O2 (stereo not drawn)	-5%
Cc1c(S(=O)(=O)O)oc2c1C(=O)C(=O)c1c-2ccc2c1CCCC2(C)C	10µM*
COCCNc1cc(C)nc2c(-c3ccccc3OC)c(C)nn12	u
CCOC(=O)Nc1c(C(=O)OC)[nH]c2cc(OC)ccc12	32µM*
CCCc1cc(=O)[nH]c(/N=C(/NC(=O)c2ccccc2)Nc2ccc3c(c2)OCCO3)n1	11%
Cc1nc(CNS(=O)(=O)c2cccnc2)cs1	3%
COc1cccc(C=Nc2cccnc2)c1O	1%
Cc1csc(SCCn2c(N3CCOCC3)nc3c2c(=O)[nH]c(=O)n3C)n1	6%
COc1cccc(C2=NOC(C(=O)N3CCc4ccccc4C3)C2)c1 (stereo not drawn)	-2%
CCN(C(=O)CSc1nc2nc(C)cc(C)n2n1)c1ccccc1	6%
CN(Cc1cc(Cl)cc(Cl)c1O)Cc1c(O)ccc2ccccc12	-27%[11.4 µM]
CN1CCN(c2ccnc(-c3ccccc3C(F)(F)F)n2)CC1	0%
Cc1ccc(Cn2nnc(C(=O)Nc3cc(C)ccc3C)c2N)cc1	-9%
COc1cccc(CC(NC(C)=O)C(=O)NC2CCN(c3nc(C)cc(C)c3C#N)CC2)c1 (stereo not drawn)	25µM*
CC(=O)N1C(=O)C2(C(C#N)=C(N)Oc3cc(C)oc(=O)c32)c2ccccc21 (stereo not drawn)	4%
C=CCn1c(N)cc(=O)nc1SCC(=O)NC(C)c1ccccc1 (stereo not drawn)	4%
O=C(CN1CCCCCC1=O)OCc1ncc(-c2ccccc2)o1	6%
COC(=O)c1ccc(Oc2nc(Nc3ccccc3)nc(N(C)C)n2)cc1	-5%
Nc1ncnc2c1ncn2[C@H]1O[C@@H](C(=O)O)[C@@H](O)[C@H]1O	5%[11.4 µM]
CCN(CC)S(=O)(=O)c1ccc(C(=O)Nc2c3c(nn2C(C)(C)C)CS(=O)(=O)C3)cc1	7%
CCOC(=O)c1c(C)[nH]c(C(=O)COC(=O)c2oc3ccc(OC)cc3c2C)c1C	u

Four entries from above, field by field:
Molecule: CCN(C(=O)CSc1nc2nc(C)cc(C)n2n1)c1ccccc1
  HSD17B inh: 6%
Molecule: CN(Cc1cc(Cl)cc(Cl)c1O)Cc1c(O)ccc2ccccc12
  HSD17B inh: -27%[11.4 µM]
Molecule: CN1CCN(c2ccnc(-c3ccccc3C(F)(F)F)n2)CC1
  HSD17B inh: 0%
Molecule: Cc1ccc(Cn2nnc(C(=O)Nc3cc(C)ccc3C)c2N)cc1
  HSD17B inh: -9%
